High-throughput results deposited in PubChem BioAssay by ICCB-Longwood Screening Facility, Harvard Medical School.
AID504770: growth inhibition of E. coli YBA685, primary screen, V. cholerae RctB inhibitors. 0.27% of 130,000 active. z-score (test concentration not listed). E. coli YBA685 rctB-dependent plasmid, OD600 growth, 3 h; stronger effect = lower value. AID 504770, 2011;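 active = z-score under -2 on both plates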;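 also: wells of about 30 µL received 100 nL stock; score is relative to mean and SD of the test wells; the first replicate is given; strong numbers were not always called active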
CapD inh: Bacillus anthracis CapD inhibitors, primary screen, biochemical, fluorescence intensity; purified CapD enzyme, fluorescence intensity read-out; stronger effect = lower value; some hits fall short of the stated cut; CapD gamma-glutamyltranspeptidase (Bacillus anthracis Ames Ancestor); z-score (no concentration beside the values); 0.23% of 140,000 active;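 active = z-score under -4 in either of two replicates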;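 also: stock transfer was 100 nL into about 40 µL; score is relative to mean and spread of the plate; one replicate is shown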
* marks the source's active call; other numbers are inactive results; . = no result given. Hits appear at their usual frequency, and some 0.37% of all compounds hit somewhere here.

structure	AID504770	CapD inh
C=CCNC(=O)C(=O)c1cccn1-c1c(C(=O)OC)sc2ccccc12	.	-1.05
OC(CSc1cccc(Cl)c1)CN1CCN(c2ccccc2)CC1 (stereo not drawn)	.	0.115
CC1=C(C(=O)Nc2cccc3ccccc23)C2(CCN(C(C)C)CC2)OC1=O	-1.3	6.58
CCOC(=O)CNc1cccc(Cl)c1	0.3	.
COc1ccc(-n2cnc3sc4c(c3c2=O)CCCC4)cc1	-0.65	-0.32
COc1ccc(Br)cc1C1C(N2C(=O)c3cccc([N+](=O)[O-])c3C2=O)C(=O)N1c1cccc(Cl)c1C (stereo not drawn)	.	-0.085
CC(C)(C)C(=O)[C@H]1[C@H](c2cccc(Cl)c2)C(C#N)(C#N)[C@@H]2c3ccccc3C=CN21	.	-0.27
CCCC(=O)NCc1ccc2c(c1)cc(C)n2C	-1	-0.285
O=C(N/N=C/c1csc([N+](=O)[O-])c1)c1ccco1	.	-0.075
N#CC(C#N)=Cc1cn(CCCOc2ccccc2Cl)c2ccccc12	0.4	.
Nc1nc2ccccc2n1Cc1ccc(Cl)cc1	-1.4	0.005
COc1cccc(CNS(=O)(=O)c2ccc(Oc3cccc(Cl)c3C#N)cc2)c1	.	0.085
CCN(Cc1ccccc1)S(=O)(=O)c1ccc2oc(C(=O)O)c(C)c2c1	1.45	0.185
Cc1nc2c3c(-c4ccccc4)nc(N4CCCCCC4)nc3nn2c(C)c1CCC(=O)O	0.2	0.065
O=C(COc1ccccc1/C=C1\N=C2CCCCCN2C1=O)N1CCCC1	0.55	.
COc1ccc(C2=NN(C(=O)CCCC(=O)O)C(c3cccc(OC)c3OC)C2)cc1OC (stereo not drawn)	.	39.8
Cc1ccc(-c2nc3nc(-c4cc(C(C)(C)C)cc5c4CCC5(C)C)cn3nc2-c2ccc(C)cc2)cc1	.	0.845
CC1CCc2cc(F)ccc2N1C(=O)C12CCC(C)(C(=O)C1)C2(C)C (stereo not drawn)	-0.8	-0.345
O=C1c2ccccc2C(=O)c2cc(S(=O)(=O)Nc3cccc4cccnc34)ccc21	.	-0.31
O=C(NC1CCCC1)c1cc2ccccc2oc1=O	-0.4	.
Cc1ccc(S(=O)(=O)Cc2ccc(C(=O)N3CCc4ccccc4C3)o2)cc1	0.35	-0.345
COc1ccc(-n2cnc3cc(NC(=O)c4ccco4)ccc32)cc1	-0.45	.
CCOC(=O)C1(C(F)(F)F)N=C(N2CCOCC2)Oc2c1c(C)nn2-c1ccccc1 (stereo not drawn)	1.25	-0.335
CNc1nc2c(c(=O)[nH]c(=O)n2C)n1CCCCCn1c(NC)nc2c1c(=O)[nH]c(=O)n2C	.	-0.625
CCC(C(=O)Nc1ccccn1)c1ccccc1 (stereo not drawn)	-0.7	1.44
COc1ccc(C(=O)N2CCc3cc(OC)c(OC)cc3C2C)c(OC)c1 (stereo not drawn)	0.25	-0.26
O=S(=O)(c1cccc(F)c1)N1CCN(c2cc(C(F)(F)F)nc3ccccc23)CC1	.	0.585
O=C(Nc1ccc(-c2cn3cccnc3n2)cc1)C1CCCCC1	-0.1	113
Cc1ccc2c(c1)cc(CN(Cc1ccco1)C(=O)c1ccccc1)c1nnnn12	-0.75	.
CCOC(=O)C(C#N)c1ccccn1 (stereo not drawn)	0.75	-2.08
COc1cc(OC)c(NC(=O)CN2CC(c3ccccc3)CC2=O)cc1Cl (stereo not drawn)	-0.2	0.125
CCCN1CCC(NC(=O)C2CCN(C(C)=O)CC2)CC1	-0.2	0.435
O=C(Nc1nnc(C2CC2)o1)c1ccc(S(=O)(=O)N2CCCc3ccccc32)cc1	-0.05	0.42
Cc1ccc2[nH]c(=O)c(CN3CCCCC3)c(-c3ccccc3)c2c1	-1.65	9.92
O=C1NCC(=O)N2CCCC12 (stereo not drawn)	-1.4	-0.32
CCOC(=O)CSc1nc2c(c(=O)n1-c1ccccc1)C(=O)C1COC(C)(C)CC1=N2 (stereo not drawn)	-0.85	1.02
Cc1oc(-c2cccc(C(F)(F)F)c2)cc1C(=O)NC(C)C	0.3	.
Nc1nc(-c2ccc(Cl)cc2)cc(C(F)(F)F)n1	0	3.15
COc1cc(Cl)c(C)cc1NC(=S)N(CCN1CCCCCC1)Cc1ccco1	-0.8	0.675
CCC(C)N1CCN(Cc2cc(OC)c(OC)cc2OC)CC1 (stereo not drawn)	1.6	.
CCCCOC(=O)c1ccc(NC(=O)CSCc2n[nH]c(=O)[nH]2)cc1	-0.6	0.15
C/C(CCc1ccc2c(c1)OCO2)=N\NC(=O)c1cc2c3ccccc3n(C)c2s1	0.15	.
O=C(Nc1ccc(F)cc1)N1CCC(c2nc3ccccc3s2)CC1	.	0.225
CCn1c(CCCNC(=O)c2cccc(C)c2)nc2ccccc21	0.4	-0.245
CCN(CC)C(=O)CSc1nc2ccccc2n1C(=O)Oc1ccccc1	.	-0.39
CC(C(=O)OCC(=O)n1c2c(c3ccccc31)CCCC2)N1C(=O)c2ccccc2C1=O (stereo not drawn)	-0.25	0.07
CC(=O)Nc1ccc(NC(=O)C(C)OC(=O)c2ccc(S(=O)(=O)N3CCCCC3)cc2)cc1 (stereo not drawn)	-0.6	.
CC1(C)CC(C(CC(=O)N2CCCC2)Cc2ccccc2)CCO1 (stereo not drawn)	-0.75	-0.28
CCOC(=O)c1c(NC(=O)C(C)Sc2nnc(CNC(=O)c3ccco3)n2C)sc2c1CCCCC2 (stereo not drawn)	.	-0.815
CCCC(C(=O)NC1=NCCS1)c1ccccc1 (stereo not drawn)	-0.75	.

Reformatted with two lines to a compound: part of the list above.
Results follow in this order: AID504770	CapD inh
- COc1cc(Cl)c(C)cc1NC(=S)N(CCN1CCCCCC1)Cc1ccco1
 : -0.8	0.675
- CCC(C)N1CCN(Cc2cc(OC)c(OC)cc2OC)CC1 (stereo not drawn)
 : 1.6	.
- CCCCOC(=O)c1ccc(NC(=O)CSCc2n[nH]c(=O)[nH]2)cc1
 : -0.6	0.15

Part of the list above, as labelled records:
COc1ccc(C(=O)N2CCc3cc(OC)c(OC)cc3C2C)c(OC)c1 (stereo not drawn)
  AID504770: 0.25	CapD inh: -0.26

O=S(=O)(c1cccc(F)c1)N1CCN(c2cc(C(F)(F)F)nc3ccccc23)CC1
  AID504770: .	CapD inh: 0.585

O=C(Nc1ccc(-c2cn3cccnc3n2)cc1)C1CCCCC1
  AID504770: -0.1	CapD inh: 113

Cc1ccc2c(c1)cc(CN(Cc1ccco1)C(=O)c1ccccc1)c1nnnn12
  AID504770: -0.75	CapD inh: .

Further compounds follow:
structure	AID504770	CapD inh
O=C(CSc1ncnc2c1oc1ccccc12)OCc1c(F)cccc1Cl	0.1	.
CCC(=O)OC1=C(C)C2C3C(=O)N(c4ccc(F)cc4)C(=O)C3C1(C)C1C(=O)N(c3ccc(F)cc3)C(=O)C21 (stereo not drawn)	.	0.245
N#C/C(=C\N1CCN(c2ccccc2)CC1)S(=O)(=O)c1ccc(F)cc1	-0.15	-0.335
CN(C(=O)CCCN1C(=O)c2ccccc2C1=O)C1CC(C)(C)N(C)C(C)(C)C1	0.8	0.075
CSc1oc(-c2ccco2)nc1S(=O)(=O)c1ccc(F)cc1	-0.7	0.275
COc1ccc(NC(=O)c2cccs2)cc1OC1CCCC1	1.2	0.395
O=c1c2cc(NC(=S)NCC3CCCO3)ccc2nc2n1CCCCC2 (stereo not drawn)	.	10.9
S=C(NCc1ccccc1)NCc1ccccn1	-0.6	0.42
COc1ccc(CCNC(C#N)c2cc(Br)ccc2O)cc1OC (stereo not drawn)	-0.2	1.96
CC1CCCC(C)N1CC(=O)O (stereo not drawn)	-0.25	.
COc1cc(-c2nc3ccccn3c2NC2CCCC2)ccc1O	1.35	.
CC(C)(C)c1cc2nc(C(F)(F)F)cc(=O)n2[nH]1	1.1	58.3
Cc1cccc(NC(=O)CSc2nnc(-c3ccoc3C)n2CC(C)C)c1C	-0.15	.
NC(=O)C(c1ccc(F)cc1)c1ccc(C(=O)c2ccccc2)cc1 (stereo not drawn)	-0.2	-0.365
O=C1CCCC2=C1C(c1ccc(O)cc1)Nc1ccc3ncccc3c12 (stereo not drawn)	.	7.94
CC(C)(C)c1nc(N)nc(=O)[nH]1	.	0.005
CC(C)CNC(=O)CCc1nc(-c2ccccc2)no1	-0.05	-0.125
CCOC(=O)c1ncn2c1C(=O)OC2(C)C	-1	-0.49
CCn1c2ccccc2c2cc(C3C(C#N)=C(N)OC4=C3C(=O)CC(C)(C)C4)ccc21 (stereo not drawn)	.	-0.165
CC1(C)SC(=S)N(CCN2CCOCC2)C1N(O)C(=O)Nc1ccccc1 (stereo not drawn)	.	6.44
Cc1ccc(-n2c(CNC(=O)c3cccs3)nnc2SCC(=O)NO)cc1	-0.5	.
N#Cc1ccsc1NC(=O)C1CCC1	-0.35	.
COc1ccc(CCNC(=O)CSc2nc3c(sc(=S)n3-c3ccccc3C)c3nc4ccccc4n23)cc1OC	.	-0.395
CCN(C(=O)c1cc(S(=O)(=O)N2CCc3ccccc32)cn1C)c1ccccc1	0.55	-0.835
Cc1cccc(N(C)S(=O)(=O)c2ccc(CN3C(=O)c4cccnc4C3=O)cc2)c1	-0.1	-0.535

(continued)
molecule | AID504770 | CapD inh
O=C(CC1Nc2ccccc2NC1=O)Nc1ccccc1 (stereo not drawn) | -1.15 | 2.6
N=C1S/C(=C\c2cn[nH]c2-c2ccc(F)cc2)C(=O)N1c1ccc(Cl)cc1 | . | 0.45
CCOc1ccccc1C(=O)N(C)c1ccccc1 | -0.35 | .
Cc1ccsc1C(=O)Oc1ccc(F)cc1 | -1 | -0.125
CCC(CC)C(=O)NCc1ccc2[nH]c3c(c2c1)CCCC3 | -0.3 | 0.195
CC(NCC1COc2ccccc2O1)C(=O)Nc1ccc(S(N)(=O)=O)cc1 (stereo not drawn) | 1.45 | .
O=C1C(=Nc2ccc(Cl)cc2)c2ccccc2N1CN1CCc2ccccc2C1 | -0.35 | 0.255
COC(=O)CSc1nc(C)nc2scc(-c3cccs3)c12 | -0.45 | .
CC(C)NCC(=O)Nc1ccc(-c2ccccc2)cc1 | 1.8 | .
O=C(c1cnn(-c2ccccc2)c1-n1cccc1)N1CCN(c2ccccc2)CC1 | 0 | 0.095
Cc1ccc(S(=O)(=O)N2CCCC2)cc1 | . | 0.195
Cc1cccc(/C=C2/Sc3ccccc3C2=O)c1 | -0.4 | 1.34
O=C(N/N=C/c1csc([N+](=O)[O-])c1)c1c(F)cccc1F | . | -0.55
CC(N)C(=O)N1CCN(c2nc(-c3ccccc3)c3cc([N+](=O)[O-])ccc3n2)CC1 (stereo not drawn) | . | -1.2
O=C(Nc1ccc(CN2CCS(=O)(=O)CC2)cc1)c1ccc(Cl)cc1 | -0.45 | -1.05
Cn1c(=O)c2nc3ccc(N=Cc4c(O)n(Cc5ccccc5)c(=O)[nH]c4=O)cc3nc2n(C)c1=O | 0 | -0.595
COc1cccc(C(=O)Nc2nc(-c3cccs3)cs2)c1 | -0.15 | 1.28
Nc1ccccc1SCc1cc(Cl)cc2c1OCOC2 | . | 0.005
CNCc1cccc(F)c1 | -0.55 | .
CCC(=O)Nc1nc2c(s1)CSc1ccccc1-2 | -0.5 | .
Cc1c(C(=O)/C=C/N(C)C)nnn1-c1ccc(F)c(Cl)c1 | -0.05 | -1.19
CCCCNC(=O)c1cn(C)c2ccc(S(=O)(=O)N3CCCCC3)cc2c1=O | -0.05 | -0.29
CN1CCN(NC(=O)CN2C(=O)S/C(=C\c3c(Cl)cccc3Cl)C2=O)CC1 | . | 0.085
NCCCOCC1CC1 | -1.4 | .
CC(C)(C)c1ccc(NC(=O)Nc2ccc3c(c2)OCCO3)cc1 | -1.05 | -0.085
Cc1ccc(CNCCCn2ccnc2)cc1 | 0.9 | .
O=C(CSc1ncnc2nc[nH]c12)c1ccc(Cl)cc1 | . | -0.04
CCC(CC)c1nnc(NC(=O)c2ccc(OCC(=O)N3CCOCC3)c(OC)c2)s1 | 0.5 | .
O=C(c1nn(-c2ccc(Cl)cc2)c(=O)c2ccccc12)N1CCCC1 | . | -0.145
CCc1cccc(C)c1NC(=O)c1cccc2c1C(=O)N(Cc1cccnc1)C2 | -0.25 | 31.9
COc1ccc(CCNC(=O)c2c(Cl)nc3sccn23)cc1 | 0.45 | -0.67
C1=CC(=C(c2ccccc2)c2ccccc2)C=C1 | . | -0.39
O=C(Cc1c[nH]c2ccccc12)Nc1ccc(F)cc1 | -0.5 | .
CC(C)CNc1nc2ccccc2s1 | -0.05 | -0.36
COc1ccc(C(=O)N2CCCC2)cc1S(=O)(=O)N1CCCc2ccccc21 | -0.5 | .
CC(C)(C)c1ccc(C(=O)N2CCC(c3nc(-c4ccc5c(c4)OCO5)no3)CC2)cc1 | . | -0.495
CCOc1ccc(N2C(=O)/C(=C/c3ccc(OCC(=O)O)c(OC)c3)C(=O)NC2=S)cc1 | . | -1.38
Cc1cccc(-c2nc3sc4c(c3c(=O)o2)CCC4)c1 | . | 0.19
CCOC(CNS(=O)(=O)c1ccc(S(C)(=O)=O)cc1)(OCC)c1ccncc1 | . | 0
Cc1ccccc1CCOC(=O)NNC(=O)c1cccc(O)c1 | . | 0.29
O=C(O)c1ccc(Nc2ccnc3cc(Cl)ccc23)cc1 | -1.05 | -0.595
O=C(O)c1cccc(CSc2cccs2)c1 | . | 0
COc1ccccc1C(=O)n1cc(C)cn1 | 0.35 | 0.585
Cc1c(C(=O)Nc2ccc3c(c2)OCCO3)sc2ncnc(N3CCCCC3)c12 | . | -0.35
